Calb FLC: affects C. albicans growth with fluconazole; C. albicans CaCi-2 (fluconazole-resistant clinical isolate) + fluconazole, Alamar Blue growth, 48 h; growth inhibition, % (test concentration not listed); actives 0.57% (n = 300,000);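 active = most replicates above 75%; inconclusive = exactly half above 75%; inactive = most below 75%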;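 note: all wells also contain fluconazole at 8 µg/ml as a sub-toxic cotreatment; 0% = median of DMSO wells and 100% = median of geldanamycin control wells; wells of about 8 µL received 7.5 nL stock; the first replicate is given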
ALR inh: blocks human ALR sulfhydryl oxidase activity. P55789. actives 3.8% (n = 290,000). purified ALR, DTT oxidation, H2O2 HRP-luminol luminescence. AID 485317. inhibition, % (no concentration beside the values);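 active = mean and each replicate at 75% or more; inconclusive = only one of the two met; inactive = neither met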;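 note: stock transfer was 7.5 nL into about 7.5 µL; 0% = neutral wells and 100% = wells with inactivated enzyme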
Target sequence (P55789 whole entry, looked up): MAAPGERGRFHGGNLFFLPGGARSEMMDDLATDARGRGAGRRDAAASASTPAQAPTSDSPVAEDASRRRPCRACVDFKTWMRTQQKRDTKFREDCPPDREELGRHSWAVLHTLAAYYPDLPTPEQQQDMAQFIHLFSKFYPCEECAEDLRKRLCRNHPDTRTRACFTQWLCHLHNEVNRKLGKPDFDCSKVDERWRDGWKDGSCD
MLL AF4-AF9 inh: blocks AF4 peptide binding to human AF9; AlphaScreen, biotin-AF4 peptide binding to FLAG-AF9; inhibition, % at 10 µM; actives 0.47% (n = 350,000); AID 651704;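 active = every replicate reaching a set inhibition limit, whatever the replicate mean, cut at about 25% in these data; inconclusive = mean inhibition reaches that limit but some replicates miss it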;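 note: 0% = plate neutral control median and 100% = total signal loss; the record names both 10 and 1 µM as test concentration; the first replicate is given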
Target sequence (P42568 whole entry, looked up): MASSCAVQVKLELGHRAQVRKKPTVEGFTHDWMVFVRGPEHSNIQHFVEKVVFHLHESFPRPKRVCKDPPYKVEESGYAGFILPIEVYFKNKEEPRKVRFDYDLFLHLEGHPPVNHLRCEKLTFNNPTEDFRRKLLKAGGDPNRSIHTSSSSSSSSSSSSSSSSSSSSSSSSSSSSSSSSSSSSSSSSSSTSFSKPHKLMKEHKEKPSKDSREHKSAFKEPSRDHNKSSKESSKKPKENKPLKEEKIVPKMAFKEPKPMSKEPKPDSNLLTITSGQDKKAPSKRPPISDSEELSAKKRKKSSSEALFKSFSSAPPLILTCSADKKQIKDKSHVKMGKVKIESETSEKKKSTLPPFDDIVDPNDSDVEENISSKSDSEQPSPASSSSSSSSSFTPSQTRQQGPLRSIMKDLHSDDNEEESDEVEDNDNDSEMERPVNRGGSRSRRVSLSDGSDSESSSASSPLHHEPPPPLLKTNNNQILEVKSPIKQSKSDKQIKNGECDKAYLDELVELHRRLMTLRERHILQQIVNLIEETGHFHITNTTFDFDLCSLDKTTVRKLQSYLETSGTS
Beta apoptosis: blocks beta cell apoptosis; INS-1E cytokine-induced death, ATP luminescence, 48 h; percent of positive-control rescue, neutral wells zero; protection from apoptosis, % (no concentration beside the values); actives 0.8% (n = 300,000); AID 435005;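 active = all replicates at 75% or more, or half of them and the mean; inconclusive = half reach 75% but not the mean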;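 note: 0% = cytokine-treated negative control wells and 100% = positive control rescue; higher means more ATP so stronger rescue from cytokine killing; wells of about 40 µL received 100 nL stock; the first replicate is given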
rRNA inh HTS: inhibitors of bacterial rRNA selective over humanized ribosomes; GFP signal change (wild-type ribosome), % (concentration not given with the values); actives 1.6% (n = 350,000); E. coli WT GFP vs humanized-ribosome RFP mutants, fluorescence, 24 h; hits give low values; DMSO median 0, no signal -100; AID 720706;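 active = significant combined selectivity score with lowered wild-type GFP, culture density cut under 30%, mutant RFP and density less affected; inactive = any of these conditions unmet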; note: one replicate is shown; some compounds called inactive have numbers as strong as hits
FGF22 binding: shifts melting point of recombinant human FGF22. Q9HCT0. recombinant FGF22 thermal shift, SYPRO orange fluorescence; percent of sucrose octasulfate shift, DMSO zero. calls only at 9.99 µM. actives 1.5% (n = 340,000). AID 651658;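 active = melting point raised past a set limit in the mean and every replicate; inconclusive = no clear call; three in four hits are not shown here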
RanGTP-Impb inh: inhibitors of RanGTP-importin-beta interaction, primary screen, biochemical, FRET, CFP-Ran, YFP-importin-beta, homogeneous | AID 2216 | actives 1.1% (n = 300,000) | cell-free CFP-Ran/YFP-importin-beta FRET ratio | inhibition, % (no concentration beside the values);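 active = most replicates above 15%; inconclusive = exactly half above 15%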;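 note: 0% = DMSO wells and 100% = Ran loaded with GDP instead of GTP; wells of about 40 µL received 100 nL stock; the first replicate is given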
T cruzi inh: T. cruzi replication inhibition. actives 1.4% (n = 300,000). inhibition, % (test concentration not listed). T. cruzi beta-gal in NIH3T3, luminescence, 90 h. AID 1885;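 active = mean inhibition across valid replicates above about 55%, limit read from the data; inconclusive = mean below that limit but half or more replicates reach it; inactive = mean below it, under half of replicates reach it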;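 note: signal also drops with host cell toxicity which is not excluded here; 0% = plate median of DMSO wells and 100% = zero luminescence signal; higher percent means less beta-gal luminescence so fewer parasites; stock transfer was 50 nL into about 50 µL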
rRNA inh HTS OD600: also measured in rRNA inh HTS; calls as there; OD600 change, %; measured here: OD600 growth;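 optical density of the mix in the first replicate; 0 = DMSO median and -100 = no signal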
rRNA inh HTS RFP: recorded beside rRNA inh HTS, whose call it bears; RFP signal change, %; measured here: RFP humanized mutant strains;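 first replicate; 0 = DMSO median and -100 = no signal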
Numbers without * were called inactive; i = inactive; ? = inconclusive; . = no result given. Not all compounds are listed, so the mix of outcomes need not match the whole.

Letter code: A = Calb FLC; B = ALR inh; C = MLL AF4-AF9 inh; D = Beta apoptosis; E = rRNA inh HTS; F = rRNA inh HTS OD600; G = rRNA inh HTS RFP; H = FGF22 binding; I = RanGTP-Impb inh; J = T cruzi inh
> Cc1ccc(NC(=O)CN(c2ccccc2)S(=O)(=O)N(C)C)cc1
  A = -0.2	B = -5.5	C = .	D = -2.9	E = .	F = .	G = .	H = .	I = -0.3	J = -8.2

> CC(Oc1ccc(Cl)cc1Cl)C(=O)Nc1ccc(O)cc1 (stereo not given)
  A = ?	B = 98.3*	C = -10.6	D = 1.2	E = -26.2	F = -40.1	G = -6.2	H = .	I = -3.7	J = 10.1

> Cc1n[nH]c(=O)c2c(NC(=O)CSc3ncccn3)oc(C)c12
  A = .	B = -4.9	C = -5.6	D = 0.7	E = 0.6	F = 6.5	G = -0.6	H = i	I = 1.9	J = 2.6

> C=CCOC(=O)C1=C[C@H](C2CC2)[C@@H](CCCO)[C@H](OCC)O1
  A = -5.6	B = -7.7	C = 5.4	D = -7.3	E = 5.8	F = -9.5	G = -3.9	H = i	I = -3.0	J = 3.4

> Cc1ccc(-c2c(C)n([O-])c3c([n+]2=O)CCC3)o1
  A = 1.4	B = 3.2	C = .	D = -2.5	E = .	F = .	G = .	H = .	I = -1.7	J = -15.6

> N#Cc1ccccc1OCC(=O)OCC(=O)c1ccc2c(c1)NC(=O)CO2
  A = 10.9	B = -7.6	C = .	D = -1.7	E = .	F = .	G = .	H = .	I = 3.2	J = -3.8

> O=[N+]([O-])c1ccccc1/C=C/CN1CCCC(CO)C1 (stereo not given)
  A = -9.3	B = .	C = 0.4	D = -0.6	E = 9.1	F = 5.8	G = -1.5	H = i	I = 2.8	J = -1.6

> Cc1ccc(SCC(=O)Nc2cccc(C(=O)NC(C)(C)C)c2)cc1
  A = 3.6	B = -12.4	C = .	D = -3.3	E = .	F = .	G = .	H = .	I = 0.7	J = 10.7

> O=[N+]([O-])c1ccccc1S(=O)(=O)N1CCCCC1
  A = 3.9	B = 4.5	C = .	D = -1.3	E = .	F = .	G = .	H = .	I = -1.8	J = -14.6

> O=C(CCC(=O)Nc1ccc(F)cc1)N/N=C/c1cc([N+](=O)[O-])ccc1O
  A = -13.8	B = -1.3	C = -5.7	D = 2.4	E = 5.1	F = 4.9	G = 5.2	H = i	I = -3.6	J = -2.4

> Cn1nnnc1SCC(=O)N1CCN(c2ccccc2)CC1
  A = -0.8	B = 68.2	C = .	D = -5.5	E = .	F = .	G = .	H = .	I = 6.3	J = 1.9

> Cc1cc(Br)c2c(c1)C1(OCCO1)C(=O)N2
  A = -0.4	B = -11.4	C = -0.9	D = -0.6	E = 9.5	F = 2.2	G = -0.6	H = i	I = -3.6	J = 0.3

> COc1cc(SC)ccc1C(=O)Nc1c(Cl)cncc1Cl
  A = 21.1	B = 76.6*	C = -1.3	D = -4.9	E = -21.6	F = -23.8	G = -6.1	H = i	I = 2.6	J = 22.2

> COc1ccc(CNC(=O)CCSc2nc(-c3ccc4c(c3)OCO4)cc(C(F)(F)F)n2)cc1
  A = -0.2	B = -3.2	C = .	D = 5.8	E = .	F = .	G = .	H = .	I = -1.1	J = 44.4

> Cc1c(C(=O)N2C[C@@H](C)O[C@@H](C)C2)oc2c(F)cccc12
  A = -3.6	B = -2.0	C = -1.2	D = -10.4	E = -1.7	F = -0.1	G = -1.9	H = i	I = 1.1	J = -4.2

> CC(=O)Nc1ccccc1C(=O)C(=O)Nc1cccc(F)c1
  A = -2.6	B = -5.9	C = .	D = 1.4	E = 7.5	F = 11.0	G = -3.2	H = .	I = -4.6	J = -1.5

> O=C(NCCSCc1ccccc1)c1ccc(C2SCC(=O)N2Cc2ccccc2)cc1 (stereo not given)
  A = 21.3	B = -8.4	C = .	D = -0.1	E = .	F = .	G = .	H = .	I = 1.1	J = 25.0

> Cc1cccc(Cc2nnc(CCC(=O)NCc3cnc4ccccn34)o2)c1
  A = -4.1	B = -4.8	C = 0.8	D = -2.8	E = 7.7	F = -0.4	G = 0.1	H = i	I = ?	J = -20.7

> CCCSC1C(C)=C(C)C(=O)N1Cc1ccccc1 (stereo not given)
  A = 3.0	B = -5.8	C = -0.8	D = .	E = 6.7	F = 7.5	G = -0.7	H = i	I = -1.0	J = -1.4

> COCc1cc(C)nc(SCC(=O)Nc2ccc3c(c2)OCCO3)c1C#N
  A = -2.2	B = 1.7	C = -1.2	D = 3.3	E = 7.0	F = 11.5	G = 1.1	H = i	I = ?	J = 5.9

> COc1cc(C)ccc1OCCOc1c(Cl)cc(Cl)cc1Cl
  A = -1.0	B = -3.1	C = .	D = -7.3	E = .	F = .	G = .	H = .	I = -4.2	J = 17.3

> CCCn1c(SCC(=O)N2CCc3ccccc3C2)nc2c1c(=O)n(C)c(=O)n2C
  A = 12.7	B = -6.6	C = .	D = -0.9	E = .	F = .	G = .	H = .	I = 4.4	J = 5.8

> CN(CC(=O)NC(=O)NCc1ccccc1)Cc1ccc(Cl)cc1
  A = -21.4	B = .	C = .	D = -6.6	E = .	F = .	G = .	H = .	I = 0.4	J = -4.3

> COc1ccc(NC(=O)c2ccccc2OCc2c(C)noc2C)cc1OC
  A = 2.1	B = -12.2	C = 2.0	D = -7.7	E = -3.1	F = -8.1	G = -1.1	H = i	I = -0.9	J = -14.8

> CCC(C)NC(=O)[C@H]1N2C(=O)c3c(ccc(OC)c3OC)C2SC1(C)C (stereo not given in full)
  A = 5.3	B = -0.1	C = 0.7	D = -6.6	E = 4.9	F = 4.1	G = -3.2	H = i	I = -3.2	J = 3.1

> Nc1c(NCCN2CCCCC2)c2ccccc2oc1=O
  A = -9.4	B = 0.4	C = 2.7	D = -2.4	E = 5.2	F = 10.4	G = 1.8	H = i	I = 3.9	J = -18.8

> COc1ccc(CCNc2ncnc3c2nnn3Cc2ccccc2)cc1OC
  A = 3.6	B = .	C = 2.6	D = 3.5	E = 3.2	F = 8.2	G = 0.7	H = i	I = -1.0	J = -1.9

> Cc1[nH]c2ccccc2c1C(O)c1ccncc1 (stereo not given)
  A = -2.7	B = 0.8	C = -0.9	D = -3.5	E = 3.6	F = -0.3	G = 0.3	H = i	I = 2.3	J = 4.3

> CCOC(=O)c1sc(NC(=O)CN2CCN(c3ccc(OC)cc3)CC2)nc1C
  A = -9.4	B = 48.0	C = 14.3	D = .	E = -19.0	F = -22.7	G = 5.0	H = i	I = 0.5	J = -6.8

Some of these compounds in order of SMILES length, smallest number first.
Letter code: A = Calb FLC; B = ALR inh; C = MLL AF4-AF9 inh; D = Beta apoptosis; E = rRNA inh HTS; F = rRNA inh HTS OD600; G = rRNA inh HTS RFP; H = FGF22 binding; I = RanGTP-Impb inh; J = T cruzi inh
> COc1cc(C)ccc1OCCOc1c(Cl)cc(Cl)cc1Cl
  A = -1.0	B = -3.1	C = .	D = -7.3	E = .	F = .	G = .	H = .	I = -4.2	J = 17.3

> O=C(NCCSCc1ccccc1)c1ccc(C2SCC(=O)N2Cc2ccccc2)cc1 (stereo not given)
  A = 21.3	B = -8.4	C = .	D = -0.1	E = .	F = .	G = .	H = .	I = 1.1	J = 25.0

> CCCn1c(SCC(=O)N2CCc3ccccc3C2)nc2c1c(=O)n(C)c(=O)n2C
  A = 12.7	B = -6.6	C = .	D = -0.9	E = .	F = .	G = .	H = .	I = 4.4	J = 5.8

Among those listed so far, 2 contain a cyano group:
Letter code: A = Calb FLC; B = ALR inh; C = MLL AF4-AF9 inh; D = Beta apoptosis; E = rRNA inh HTS; F = rRNA inh HTS OD600; G = rRNA inh HTS RFP; H = FGF22 binding; I = RanGTP-Impb inh; J = T cruzi inh
> N#Cc1ccccc1OCC(=O)OCC(=O)c1ccc2c(c1)NC(=O)CO2
  A = 10.9	B = -7.6	C = .	D = -1.7	E = .	F = .	G = .	H = .	I = 3.2	J = -3.8

> COCc1cc(C)nc(SCC(=O)Nc2ccc3c(c2)OCCO3)c1C#N
  A = -2.2	B = 1.7	C = -1.2	D = 3.3	E = 7.0	F = 11.5	G = 1.1	H = i	I = ?	J = 5.9
